VACV mCherry inh: inhibitors of vaccinia virus infection (mCherry reporter signal) | Vaccinia virus mCherry reporter infection, fluorescence; about a quarter of the inactives have no number | Potency, µM (series often up to 36.5 µM), inactives show at the top dose activity change, negative = inhibition, hits mostly inhibitors | actives 0.63% (n = 310,000); active = well fitted inhibition curve with a large enough effect; inconclusive = small, poorly fitted or top-dose-only effect; inactive = no such curve, though single readings can be large or run the other way; tested in A549 cells; further: nearly all actives have a fitted effect of over 35% in size; inactives centre near -10
VACV Venus inh: inhibitors of vaccinia virus (Venus reporter); Vaccinia virus Venus reporter expression, fluorescence; Potency, µM (highest dose often 36.5 µM), for the others: at the top dose activity change, negative = inhibition, most hits filed as inhibitors; actives 0.46% (n = 330,000); AID 720580; active means well fitted inhibition curve with a large enough effect; inconclusive means small, poorly fitted or top-dose-only effect; inactive means no such curve, though single readings can be large or run the other way; tested in A549 cells; further: nearly all actives have a fitted effect of over 30% in size; inactives centre near -10
The depositor's hits bear a star; & = joins results of further samples; [ ] = remark or other dose. On the % scale 0 is the no-effect control and ±100 the full control effect; potency means the concentration at half of the fitted maximal effect. These rows are one share of the data. The share of hits here may be higher or lower than overall.

Screening NC(=O)NC(=O)Cc1ccccc1 returned VACV mCherry inh -10% and VACV Venus inh -4%.
Screening CCC(Cc1c(I)cc(I)c(N)c1I)C(=O)O (stereo not given) returned VACV mCherry inh -8%&-9% and VACV Venus inh -9%&-8%.
Screening COc1cc(C(=O)NCCCCCC(=O)O)cc(OC)c1OC returned VACV mCherry inh -18% and VACV Venus inh -18%.
NC(=O)c1ccc([N+](=O)[O-])cc1Cl was read as VACV mCherry inh -18% and VACV Venus inh -3%.
Cc1ccsc1/C=C/C1=NCCCN1C was read as VACV mCherry inh -1%&-11% and VACV Venus inh -14%&-14%&-11%&-3%.
`CC[C@]12CCCN3CCc4c(n(c5ccccc45)[C@@](O)(C(=O)OC)C1)[C@@H]32` gave VACV mCherry inh inactive and VACV Venus inh -4%&-15%.
CC(C)(C)c1ccc(S(=O)(=O)c2cnc(SCC(=O)Nc3ccc(F)c(Cl)c3)[nH]c2=O)cc1 was read as VACV mCherry inh 11%[7.34 µM] and VACV Venus inh -5%[7.34 µM].
Screening Oc1cc2c(cc1O)C1c3ccc(O)c(O)c3OCC1(O)C2 (stereo not given) returned VACV mCherry inh 39%&-3%&46%[activator] and VACV Venus inh 84%&0%&21%[activator].
Screening Cc1cc(O)c2c(c1)C(=O)c1cccc(O)c1C2=O returned VACV mCherry inh -1% and VACV Venus inh 12%.
`CN=C(N)NC(=O)Nc1c(C)cccc1C` gave VACV mCherry inh inactive and VACV Venus inh -6%.
`CCOC(=O)Nc1ccc2c(c1)N(C(=O)CCN1CCOCC1)c1ccccc1S2` gave VACV mCherry inh -19%&-4% and VACV Venus inh -24%&-21%.
For Cc1ccc(C(=O)C(C)CN2CCCCC2)cc1 (stereo not given) the results were VACV mCherry inh -7% and VACV Venus inh -8%.
Screening Cc1ccc(CNC(=O)C2CCN(S(=O)(=O)c3c(C)noc3/C=C/c3ccccc3F)CC2)o1 returned VACV mCherry inh -8%[7.34 µM] and VACV Venus inh -9%[7.34 µM].
For CC1(C)Oc2ccc(C#N)cc2[C@@H](N2CCCC2=O)[C@@H]1O the results were VACV mCherry inh -18% and VACV Venus inh -12%.
`C#C[C@]1(O)CC[C@H]2[C@@H]3CCC4=CC(=O)CC[C@@H]4[C@H]3CC[C@@]21CC` gave VACV mCherry inh -2%&-4% and VACV Venus inh -15%&-16%.
`COc1cc(C)nc(-n2nc(C)cc2OC)n1` gave VACV mCherry inh -4% and VACV Venus inh -16%.
`CC1CCc2c(N3CCC(O)CC3)c(F)cc3c(=O)c(C(=O)O)cn1c23` (stereo not given) gave VACV mCherry inh inactive and VACV Venus inh -20%.
COc1cc2c(c(OC)c1OC)-c1c(cc(OC)c(OC)c1OC)C[C@H](C)[C@H](C)C2 was read as VACV mCherry inh inconclusive and VACV Venus inh -17%.
Screening O=C(c1ccccc1)c1ccc2n1CCC2C(=O)O (stereo not given) returned VACV mCherry inh -2% and VACV Venus inh -7%&-3%.
For Nc1ncnc(Nc2ccccc2)n1 the results were VACV mCherry inh inactive and VACV Venus inh -4%.
For COc1ccc2c(CNCCc3ccccc3OC)c(C(=O)O)n(Cc3ccc(F)cc3Cl)c2c1 the results were VACV mCherry inh -5% and VACV Venus inh inconclusive.
For O=C1CCc2cc(OCCCCc3nnnn3C3CCCCC3)ccc2N1 the results were VACV mCherry inh -13%&-6% and VACV Venus inh -21%&-8%.
`COc1ccccc1OC(=O)Oc1ccccc1OC` gave VACV mCherry inh -19% and VACV Venus inh -4%.
CC(C)(C(=O)c1cccnc1)c1cccnc1 was read as VACV mCherry inh inactive and VACV Venus inh -3%.

Reprinted at random: five records from the list.
COc1cc2c(c(OC)c1OC)-c1c(cc(OC)c(OC)c1OC)C[C@H](C)[C@H](C)C2 was read as VACV mCherry inh inconclusive and VACV Venus inh -17%.
For O=C1CCc2cc(OCCCCc3nnnn3C3CCCCC3)ccc2N1 the results were VACV mCherry inh -13%&-6% and VACV Venus inh -21%&-8%.
For CC1(C)Oc2ccc(C#N)cc2[C@@H](N2CCCC2=O)[C@@H]1O the results were VACV mCherry inh -18% and VACV Venus inh -12%.
Screening O=C(c1ccccc1)c1ccc2n1CCC2C(=O)O (stereo not given) returned VACV mCherry inh -2% and VACV Venus inh -7%&-3%.
`COc1ccccc1OC(=O)Oc1ccccc1OC` gave VACV mCherry inh -19% and VACV Venus inh -4%.

(next part)
`COC(=O)Nc1nc2ccc(S(=O)c3ccccc3)cc2[nH]1` (stereo not given) gave VACV mCherry inh -26% and VACV Venus inh -13%.
For CCCc1cc(C(N)=S)ccn1 the results were VACV mCherry inh -18% and VACV Venus inh -11%&-5%.
`CCN(CC)S(=O)(=O)c1ccc(C(=O)O)cc1` gave VACV mCherry inh -14% and VACV Venus inh -4%.
Screening Cc1nc2nc(NC(=O)c3cccc(Cl)c3)[nH]n2c(=O)c1Cc1ccccc1 returned VACV mCherry inh -7% and VACV Venus inh -8%.
CCN(CC)CCOC(=O)C(c1ccccc1)c1ccccc1 was read as VACV mCherry inh -2% and VACV Venus inh -8%&-17%.
CCOC(=O)Nc1ccc(NCc2ccc(F)cc2)nc1N was read as VACV mCherry inh 19% and VACV Venus inh 2%.
`C/C=C(/C)C(=O)O[C@@H]1c2cc3c(c4c2[C@@]2(CO4)C(=O)C(OC)=C(OC)C=C2C[C@@H](C)[C@H]1C)OCO3` gave VACV mCherry inh inconclusive and VACV Venus inh -8%.
COc1cc(C(=O)NC(c2ccccc2Cl)c2cc(Cl)c3cccnc3c2O)cc(OC)c1OC (stereo not given) was read as VACV mCherry inh 11µM* and VACV Venus inh -21%.
COc1ccc(Sc2ccc(NC(=O)c3ccccc3Cl)cc2C#N)cc1 was read as VACV Venus inh -29%.
Screening COc1ccc(-c2oc3c(CC=C(C)C)c(O[C@H]4OC(CO)C(O)C(O)C4O)cc(O)c3c(=O)c2O[C@@H]2OC(C)C(O)C(O)C2O)cc1 (stereo not given in full) returned VACV mCherry inh -20% and VACV Venus inh -20%.
For CC(=O)O[C@@]12CO[C@@H]1C[C@H](O)[C@@]1(C)C(=O)[C@H](O)C3=C(C)[C@@H](OC(=O)[C@H](O)[C@@H](NC(=O)OC(C)(C)C)c4ccccc4)C[C@@](O)([C@@H](OC(=O)c4ccccc4)[C@H]21)C3(C)C the results were VACV mCherry inh inactive and VACV Venus inh inconclusive.
`CN=C(NC#N)Nc1ccc(C2=NNC(=O)CC2C)cc1` (stereo not given) gave VACV mCherry inh -13%[60.7 µM] and VACV Venus inh -6%[60.7 µM].
`OCC(O)CN1CCN(c2ccccc2)CC1` (stereo not given) gave VACV mCherry inh -2%&-16% and VACV Venus inh -10%&-7%.
`CCC12CCCN3CCc4c(n(c5ccccc45)C(O)(C(=O)OC)C1)C32` (stereo not given) gave VACV mCherry inh inactive and VACV Venus inh -1%.
Nc1cc(=O)[nH]c(N)n1 was read as VACV mCherry inh inactive and VACV Venus inh -6%.
CN(C)CCOC(=O)C(c1ccccc1)C1(O)CCCC1 (stereo not given) was read as VACV mCherry inh -6%&-15% and VACV Venus inh -15%&-18%.
Screening CCCN(CCC)C(=O)C(CCC(=O)O)NC(=O)c1ccccc1 (stereo not given) returned VACV mCherry inh -16% and VACV Venus inh -14%&-2%.
Screening COc1ccc(NC(=O)C2CCCN(c3nnc(C)c4c(C)n(-c5ccccc5)nc34)C2)cc1Cl (stereo not given) returned VACV mCherry inh inconclusive and VACV Venus inh inconclusive.
`O=C1c2c(O)cccc2C(C2OC(CO)[C@@H](O)[C@H](O)[C@H]2O)c2cc(CO)cc(O)c21` (stereo not given in full) gave VACV mCherry inh inactive and VACV Venus inh 8%.
Screening COc1cc(NC(=O)c2cc(C3CC3)on2)c(OC)cc1Cl returned VACV mCherry inh -10% and VACV Venus inh 12%.
Screening CN1CCN(CCCN2c3ccccc3Sc3ccc(S(=O)(=O)N(C)C)cc32)CC1 returned VACV mCherry inh inconclusive and VACV Venus inh -28%.
O=C(NCCN1CCOCC1)c1ccc(Cl)cc1 was read as VACV mCherry inh inactive and VACV Venus inh -8%.
`O=C(O)CCCCCCCC(=O)O` gave VACV mCherry inh -13%&-7% and VACV Venus inh -11%&-3%.
For CCOc1ccc(NC(=S)N2CCC(C(O)(c3ccccc3)c3ccccc3)CC2)cc1 the results were VACV mCherry inh -27% and VACV Venus inh -22%.

Three compounds from above, ordered by heavy-atom count, smallest number first:
NC(=O)c1ccc([N+](=O)[O-])cc1Cl was read as VACV mCherry inh -18% and VACV Venus inh -3%.
CC(C)(C)c1ccc(S(=O)(=O)c2cnc(SCC(=O)Nc3ccc(F)c(Cl)c3)[nH]c2=O)cc1 was read as VACV mCherry inh 11%[7.34 µM] and VACV Venus inh -5%[7.34 µM].
Screening COc1ccc(NC(=O)C2CCCN(c3nnc(C)c4c(C)n(-c5ccccc5)nc34)C2)cc1Cl (stereo not given) returned VACV mCherry inh inconclusive and VACV Venus inh inconclusive.

Later entries:
For CN1CCN(c2c(F)cc3c(=O)c(C(=O)O)cn4c3c2SCC4)CC1 the results were VACV Venus inh -23%.
For CN1CCC(=C2c3ccccc3CC(=O)c3sccc32)CC1 the results were VACV mCherry inh -20%&-21% and VACV Venus inh -11%&0%&-12%&-9%.
CCOc1ccccc1NC(=O)CSc1nc2ccccc2c2nc(CCn3cncc3C)nn12 was read as VACV mCherry inh -26% and VACV Venus inh inconclusive.
`Cc1ccc(Cc2c(C)nc3c(-c4ccccc4)c(C)[nH]n3c2=O)cc1` gave VACV mCherry inh inconclusive and VACV Venus inh inconclusive.
`Cc1oncc1C(=O)Nc1ccc(C(F)(F)F)cc1` gave VACV mCherry inh -16% and VACV Venus inh -9%&-10%.
`O=c1c(O[C@@H]2O[C@H](CO)C(O)C2O)c(-c2ccc(O)c(O)c2)oc2cc(O)cc(O)c12` (stereo not given in full) gave VACV mCherry inh inactive and VACV Venus inh -22%.
Screening COc1ccc(Cn2c(CCC(=O)Nc3cccc(OC)c3)nc3cccnc32)cc1 returned VACV mCherry inh -19% and VACV Venus inh -29%.
`Cc1cc(NC(=O)C2CCN(S(=O)(=O)c3ccc4[nH]c(=O)oc4c3)CC2)ccc1Br` gave VACV mCherry inh 1% and VACV Venus inh -11%.
CN(C)CCC[C@@]1(c2ccc(F)cc2)OCc2cc(C#N)ccc21 was read as VACV mCherry inh -18%&-8% and VACV Venus inh -7%&-1%.
`CCCCOC(=O)c1ccc(N)cc1` gave VACV mCherry inh -1%&-15% and VACV Venus inh -12%&-6%.
For Cc1nc2c([nH]1)c(=O)n(C)c(=O)n2Cc1ccco1 the results were VACV mCherry inh -10%&-14% and VACV Venus inh -19%&-18%.
CC(=O)OCC(=O)C1(O)CCC2C3CCC4=CC(=O)C=CC4(C)C3(F)C(O)CC21C (stereo not given) was read as VACV mCherry inh inactive and VACV Venus inh -13%.
Screening O=C1c2ccccc2C(=O)c2c(O)c(O)cc(O)c21 returned VACV mCherry inh 40%&26%[activator] and VACV Venus inh 68%&38%[activator].
Cc1cc(Cl)ccc1NC(=O)Cn1nc(C)c2c(C)n(-c3ccccc3)nc2c1=O was read as VACV mCherry inh -15% and VACV Venus inh -13%.

A portion of the results above, as a working copy:
CCOc1ccccc1NC(=O)CSc1nc2ccccc2c2nc(CCn3cncc3C)nn12 was read as VACV mCherry inh -26% and VACV Venus inh inconclusive.
`Cc1ccc(Cc2c(C)nc3c(-c4ccccc4)c(C)[nH]n3c2=O)cc1` gave VACV mCherry inh inconclusive and VACV Venus inh inconclusive.
`Cc1oncc1C(=O)Nc1ccc(C(F)(F)F)cc1` gave VACV mCherry inh -16% and VACV Venus inh -9%&-10%.

Source: PubChem (National Center for Advancing Translational Sciences (NCATS))
